Mtb growth: M. tuberculosis H37Rv growth inhibitors, H37Rv strain (AID 1626) | M. tuberculosis H37Rv growth inhibition; higher % means a stronger effect | inhibition, % at 10 µM; hits with a dose series show IC50 in µM | 220,000 tested, 0.95% active;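 active = confirmed in a dose series; inconclusive = inhibition above 80% but not taken into the dose series; inactive = below 80% or under 30% at every dose of the series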;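 also: bacteria incubated seven days before Alamar blue readout; 0% = bacteria only wells and 100% = bacteria with antibiotic wells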
RecA splice inh: Mtb RecA intein splicing inhibitors, primary screen, biochemical, fluorescence, HTS; inhibition, %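 (about 9 µM by stock and volumes)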; cell-free RecA intein splicing; AID 2221, 2009; Protein RecA (Mycobacterium tuberculosis (strain ATCC 25618 / H37Rv)), P9WHJ3; 290,000 tested, 0.75% active; in the data active = inhibition above about 30%; inconclusive = no clear call, values can overlap the other calls;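 also: 0% = vehicle wells and 100% = reference inhibitor control wells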
Target sequence (P9WHJ3 whole entry, looked up, canonical isoform): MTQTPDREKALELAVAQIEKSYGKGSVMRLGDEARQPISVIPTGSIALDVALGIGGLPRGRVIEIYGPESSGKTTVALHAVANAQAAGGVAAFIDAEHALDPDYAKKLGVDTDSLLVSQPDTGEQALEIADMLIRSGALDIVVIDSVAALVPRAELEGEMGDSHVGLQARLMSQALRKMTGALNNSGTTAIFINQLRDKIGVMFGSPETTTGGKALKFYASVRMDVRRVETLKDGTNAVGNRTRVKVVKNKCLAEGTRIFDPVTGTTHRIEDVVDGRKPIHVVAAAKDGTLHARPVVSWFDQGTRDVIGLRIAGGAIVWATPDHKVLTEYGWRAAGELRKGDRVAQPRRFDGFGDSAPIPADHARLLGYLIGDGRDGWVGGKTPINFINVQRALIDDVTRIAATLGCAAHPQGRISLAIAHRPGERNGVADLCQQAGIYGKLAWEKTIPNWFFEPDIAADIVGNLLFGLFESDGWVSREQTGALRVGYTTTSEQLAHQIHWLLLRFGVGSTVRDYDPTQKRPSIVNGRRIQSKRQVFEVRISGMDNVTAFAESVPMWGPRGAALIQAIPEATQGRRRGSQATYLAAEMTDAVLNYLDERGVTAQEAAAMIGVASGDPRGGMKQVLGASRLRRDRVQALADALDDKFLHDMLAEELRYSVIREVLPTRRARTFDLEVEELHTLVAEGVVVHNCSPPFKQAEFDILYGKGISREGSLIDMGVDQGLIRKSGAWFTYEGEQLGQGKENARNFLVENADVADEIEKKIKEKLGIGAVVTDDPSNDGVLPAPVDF
Mtb betalactam: beta-lactam sensitization of Mtb H37Rv, H37Rv; M. tuberculosis H37Rv growth with meropenem, percent inhibition; hits of this screen are not shown here; inhibition, % at 25 µM; 330,000 tested, 0.27% active; AID 434955, 2010;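 active = about 74% or more and at least 40 points above the plate without the antibiotic, then above 30% in a dose series; inconclusive = first-round hits that could not be retested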;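 also: growth measured after seven days incubation then overnight dye step; 0% = bacteria only wells and 100% = bacteria with antibiotic; twin plates without the antibiotic show which effects depend on it; some results filed as inactive read as strong as hits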
Arbovirus inh: antivirals against arbovirus infection, primary screen, cell-based, full library, 10K replicate subset; arbovirus infection cell-based antiviral screen; inhibition, % at 10 µM; 200,000 tested, 0.37% active; AID 1251, 2008;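 active = inhibition from about 30%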;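 also: bluetongue infection of BSR cells; cell survival read as ATP light after 72 h; 0% = infected wells without compound and 100% = uninfected wells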
YopH inh: YopH tyrosine phosphatase inhibitors, primary screen, biochemical, fluorescence Ex485/Em525; YopH tyrosine phosphatase [Yersinia enterocolitica]; inhibition, %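 (about 10 µM by stock and volumes)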; 140,000 tested, 0.16% active;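 active = inhibition of 50% or more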;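 also: controls were vehicle for no effect and minimum signal wells for full effect; inactives centre near -20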
Arbovirus inh repeat: further read-out of Arbovirus inh, marked with its call; inhibition, %; measured here: 10K subset replicate screen; many hits read low in the repeat;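 first of two repeat runs on a subset; 0% = infected and 100% = uninfected wells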
Numbers without * were called inactive; ? = inconclusive; nt = no result given. A portion of the library (hit frequency here may not be typical).

SMILES | Mtb growth | RecA splice inh | Mtb betalactam | Arbovirus inh | YopH inh | others
CCCNC(=S)N1CCN(Cc2ccc3c(c2)OCO3)CC1 | -13.3% | 3.6 | -8.1 | -3.5 | nt
Cc1cc(C)n(C(=O)c2ccc(S(=O)(=O)NCC3CCCO3)cc2)n1 (centres undefined) | 2.5% | 5.0 | -0.3 | 3.1 | -7.5
CC(C)N(Cc1cnn(C)c1)Cc1nc(Cc2ccccc2Cl)no1 | -3.4% | -1.1 | 6.1 | 4.6 | nt
c1ccc2c(c1)CC(N1CCCCC1)c1ccccc1N2 (centres undefined) | -7.0% | -1.1 | -9.4 | 13.3 | -24.3
O=C(NCc1ccco1)C1CCCN(S(=O)(=O)c2cc(Cl)ccc2Cl)C1 (centres undefined) | nt | 1.9 | -2.6 | nt | nt
O=C(Cn1ncc2c3ccccc3n(Cc3ccccc3)c2c1=O)N1CCN(c2ncccn2)CC1 | 8.2% | 1.0 | ? | -19.0 | -22.9
CC(C)Cc1nc(N2CCN(C(=O)C(C)C)CC2)c(C#N)c2c1CCC2 | -5.4% | 10.8 | 7.2 | -20.9 | 1.4
COc1cccc(NC(=O)C(Sc2nc3ccccc3c(=O)n2CC(C)C)c2ccccc2)c1 (centres undefined) | -7.4% | 0.1 | -1.7 | -0.2 | -39.4
COc1ccccc1C(c1nnnn1CS(=O)(=O)c1ccc(C)cc1)N1CCSCC1 (centres undefined) | -2.6% | -0.1 | 5.8 | -13.2 | -23.5
COc1ccc(S(=O)(=O)Cc2ccc(C(=O)N3CCN(C(=O)c4ccco4)CC3)o2)cc1 | -2.9% | 0.1 | 1.2 | -1.2 | -24.6 | Arbovirus inh repeat=-5.2
Cc1cc(C)n2nc(C(=O)OC(C)C(=O)c3ccccc3)nc2n1 (centres undefined) | nt | -3.9 | -0.1 | nt | nt
c1cn2c(NC3CCCCC3)c(-c3ccc(SC4CCCCC4)cc3)nc2cn1 | nt | -55.0 | 8.8 | nt | nt
C/C(=N/NC(=O)c1ccccn1)c1c[nH]c2ccccc12 | 24.2% | -3.4 | 99.0 | nt | nt
CC(OCC(O)CN1CCCCC1CCO)c1ccc(Cl)cc1 (centres undefined) | nt | 1.3 | 1.4 | nt | nt
CCOc1ccccc1N(CC(=O)N1CCc2ccccc2C1)S(C)(=O)=O | nt | -2.2 | 0.2 | nt | nt
Cn1c(Cn2c(=O)sc3ccccc32)nnc1SCc1ccc(F)cc1 | 2.6% | -1.2 | 0.0 | 12.2 | -29.9 | Arbovirus inh repeat=2.4
O=C(O)CCNS(=O)(=O)c1ccccc1Br | -7.6% | -3.2 | 0.5 | 2.1 | nt
Cc1cc(C)n(-c2nc(N(c3ccccc3)c3ccccc3)nc(-n3nc(C)cc3C)n2)n1 | 2.76µM* | 2.5 | 75.5 | -5.5 | -7.8
Cc1ccc(-c2nc(CS(=O)CC(=O)NCCN(CC(C)C)CC(C)C)c(C)o2)cc1 (centres undefined) | 8.4% | -1.3 | ? | -12.6 | -10.5
CC(OC(=O)c1cccn1C)C(=O)Nc1ccc2c(c1)OCO2 (centres undefined) | 5.2% | -4.8 | -9.6 | -3.1 | nt
N/C(Cc1cccs1)=N\OC(=O)COc1ccccc1Cl | 13.1% | 4.4 | 19.8 | -3.5 | -2.3
COc1ccc(NC(=O)CSc2nnc(C3CCCCC3)o2)c(OC)c1 | -6.7% | 4.2 | -13.3 | 2.9 | -144.8
Cc1cccc(CC(=O)NCCN2CCOCC2)c1 | nt | -0.6 | -0.2 | nt | nt
Cc1nn(-c2ccccc2)c(=S)c2ccccc12 | 1.5% | 6.3 | 8.7 | 3.3 | -24.8
CCOC(=O)c1[nH]c2ccc(OC)cc2c1NC(=S)N1CCN(c2ccccc2OC)CC1 | 10.6% | 2.9 | 0.7 | -1.1 | -14.0
COC(=O)CC1C(=O)NCCN1C(=O)c1cc(OC)c(OC)cc1OC (centres undefined) | nt | 0.1 | 2.8 | nt | nt
CC(C)(O)P(C)(=O)c1ccccc1 (centres undefined) | -6.4% | -1.1 | -11.9 | 1.1 | -49.4
COCCNS(=O)(=O)c1ccc2c3c(cccc13)C(=O)N2C | -6.7% | -100.7 | -8.0 | -2.6 | nt
Cn1cc(Cl)c(/C(N)=N/OC(=O)c2ccccc2C(F)(F)F)n1 | nt | -1.0 | -7.4 | nt | nt
COc1ccc(CN(C)c2ncnc3sccc23)c(OC)c1OC | nt | 0.2 | -9.4 | nt | nt
Cc1c(N=C2C(=O)Nc3ccccc32)c(=O)n(-c2ccccc2)n1C | 5.2% | -3.1 | -3.4 | -9.6 | -39.2 | Arbovirus inh repeat=-4.6
CC1=CC2=NC(=O)/C(=C\c3cccn3CCOc3cc(C)cc(C)c3)C(=N)N2O1 | 5.7% | -0.1 | -0.4 | -4.6 | 1.4
CC(=O)c1ccc(N/N=C2/CCCNC2=O)cc1 | 3.4% | -2.0 | 22.1 | nt | nt
c1ccc(-c2noc(COc3ccc4c(c3)OCO4)n2)cc1 | -5.3% | -0.7 | -4.2 | -8.2 | -28.2
O=C(C1=C[C@H](C2CC2)C[C@H](OCCCCO)O1)N1CCN(Cc2ccc3c(c2)OCO3)CC1 | -6.7% | -2.8 | -3.5 | 4.7 | nt
CCCc1nc(SCC(=O)N2CCC(Cc3ccccc3)CC2)c2c(=O)n(C)c(=O)n(C)c2n1 | 10.4% | 9.2 | -4.8 | -45.0 | -19.9
N#Cc1cccc(NC(=O)c2cncn2-c2ccccc2)c1 | nt | 2.0 | 2.6 | nt | nt
COc1ccc(CC(=O)OCc2cc3ccccc3[nH]c2=O)cc1 | -6.2% | 2.6 | -10.7 | 8.8 | -5.0
O=C(Cc1ccccc1Cl)Nc1nc2ccccc2[nH]1 | -2.5% | 2.2 | nt | nt | nt
Clc1ccccc1Nc1nnc(-c2ccncc2)s1 | 5.1% | -0.9 | -0.7 | -15.8 | -8.7
CC1(C(=O)N2CCN(Cc3ccccc3Cl)CC2)CC1(Cl)Cl (centres undefined) | nt | 3.1 | -3.5 | nt | nt
CC1=CC(C)(C)N=C(NC#N)N1 | 1.9% | -0.5 | 2.1 | 12.6 | -28.3
COc1cc(OC)cc(C(=O)Nc2nc3ccccc3[nH]2)c1 | 15.9µM* | -2.8 | 98.6 | -9.7 | -14.7
O=C(CSc1nnc(NC(=O)c2ccccc2F)s1)Nc1ccccc1F | 76.8% | 0.8 | 66.4 | 4.6 | nt
O=C(N/N=C/c1ccc[nH]1)c1ccccc1OCc1ccc(F)cc1 | -6.9% | -1.9 | -6.9 | nt | nt
Cc1cccc(CN2CCN(C(=O)Cc3ccccc3)CC2)c1 | nt | 0.2 | -9.4 | nt | nt
CN(C)CCCNC(=O)c1cc(C(=O)c2cccc(Cl)c2Cl)c[nH]1 | nt | -1.0 | 4.7 | nt | nt
COC(=O)CCC(=O)N1CCCC(CO)(Cc2ccccc2C)C1 (centres undefined) | -4.0% | 1.7 | -1.7 | -8.4 | nt
Cc1ccc(CN2C(=O)c3ccccc3Sc3ccc(C(=O)NCCCN4CCOCC4)cc32)cc1 | nt | 1.0 | -5.9 | nt | nt
CC(NC(=S)NC1CCCCC1)c1ccccc1 (centres undefined) | nt | 11.3 | 1.2 | nt | nt
COc1ccc(-c2cc(C)no2)cc1S(=O)(=O)N1CCN(c2cccc(C)c2)C(C)C1 (centres undefined) | nt | 4.9 | -0.4 | nt | nt
CC(C)(C)NC(=O)C(=O)NC(=O)c1c(F)cccc1Cl | -10.0% | -2.7 | -8.0 | nt | nt
COc1ccccc1N=c1oc2c(OC)cccc2cc1C(=O)NCc1ccco1 | 0.4% | 3.2 | 7.4 | -10.6 | -31.8
C/C=C(/C)C(=O)Nc1cccc(C2=NOC3(C2)C[C@@H](C(N)=O)N(C(=O)c2ccc(OC)cc2)C3)c1 (some centres undefined) | -1.4% | 1.0 | -18.5 | nt | nt
O=C1C2C3C=CC(C3)C2C(=O)N1CCN1CCN(Cc2ccc([N+](=O)[O-])cc2)CC1 (centres undefined) | 0.8% | 1.6 | -1.1 | 2.9 | nt
O=S(=O)(c1ccc2ccccc2c1)N1CCN=C1SCc1cccnc1 | nt | 5.6 | -3.9 | -0.7 | nt
CC(C)c1ccc(NC(=O)Cn2ncn3c(cc4ccccc43)c2=O)cc1 | nt | 5.4 | ? | nt | nt
COc1ccc(NC(=O)CSc2nc3ccccc3nc2N2CCCCC2)cc1 | nt | 0.7 | -2.2 | nt | nt
COCCCNC(=O)CN1C(=O)/C(=C/c2ccccc2)Sc2ccccc21 | -3.8% | -3.8 | -4.2 | nt | nt
CCCOc1ccc(CSC(CC(=O)O)C(=O)O)cc1 (centres undefined) | -4.2% | -0.4 | -1.3 | 7.9 | -55.2

Of the compounds above, these have a thiophene ring, fused or not:
SMILES | Mtb growth | RecA splice inh | Mtb betalactam | Arbovirus inh | YopH inh | others
N/C(Cc1cccs1)=N\OC(=O)COc1ccccc1Cl | 13.1% | 4.4 | 19.8 | -3.5 | -2.3
COc1ccc(CN(C)c2ncnc3sccc23)c(OC)c1OC | nt | 0.2 | -9.4 | nt | nt

Reprinted at random: 3 records from the list
SMILES | Mtb growth | RecA splice inh | Mtb betalactam | Arbovirus inh | YopH inh | others
O=S(=O)(c1ccc2ccccc2c1)N1CCN=C1SCc1cccnc1 | nt | 5.6 | -3.9 | -0.7 | nt
C/C=C(/C)C(=O)Nc1cccc(C2=NOC3(C2)C[C@@H](C(N)=O)N(C(=O)c2ccc(OC)cc2)C3)c1 (some centres undefined) | -1.4% | 1.0 | -18.5 | nt | nt
CN(C)CCCNC(=O)c1cc(C(=O)c2cccc(Cl)c2Cl)c[nH]1 | nt | -1.0 | 4.7 | nt | nt

Later entries:
SMILES | Mtb growth | RecA splice inh | Mtb betalactam | Arbovirus inh | YopH inh | others
O=C(Cc1ccc(NC2=NC3CS(=O)(=O)CC3S2)cc1)NCCc1ccccc1 (centres undefined) | nt | 2.1 | 7.3 | nt | nt
CC1=CC(C)(C)NC(=S)N1c1ccc2ccccc2c1 | -7.4% | -4.9 | 37.4 | 2.6 | -10.2
CCOC(=O)c1[nH]c(C)c(C(=O)NC)c1C | -15.3% | 0.2 | nt | 2.3 | -16.6 | Arbovirus inh repeat=-1.7
COc1cccc(CNC(=O)C2CCN(S(=O)(=O)N3CCC4(CC3)OCCO4)CC2)c1 | -6.4% | 2.3 | 3.9 | 4.9 | -27.1
CC(=O)Oc1ccc(CCC(C)OC(C)=O)cc1 (centres undefined) | 9.8% | -0.5 | 7.6 | -10.0 | -11.8
CC1(C)Oc2ccc3ccc(=O)oc3c2/C(=C/NC2CCCCC2)C1=O | 14.5% | nt | 89.7 | -21.6 | -11.4
COC(=O)[C@@H](Cc1ccccc1)NC(=O)NCCc1ccc(OC)c(OC)c1 | nt | -1.4 | -0.1 | nt | nt
CS(=O)(=O)c1ccc(NCCN2CCOCC2)c([N+](=O)[O-])c1 | nt | -0.2 | 2.6 | nt | nt
CC1(C)OC(=O)C(=CNn2cnc3ccccc3c2=O)C(=O)O1 | 3.6% | -0.9 | -1.0 | -5.3 | -49.9
CCOc1ccc(CCNC(=O)Cn2nc(C)n3cccc3c2=O)cc1OCC | nt | -6.2 | -4.4 | nt | nt
COc1ccc(Oc2ccc(C(F)(F)F)cc2NC(=O)c2ccc(C)cc2)cc1 | 0.6% | 2.5 | 12.0 | nt | nt
CC(=O)Oc1ccc2occ(C(=O)c3cccs3)c2c1 | 48.5% | 0.4 | 92.7 | -6.9 | -10.9
NC(=O)c1ccc(/C(N)=N/S(=O)(=O)c2cc(C(F)(F)F)cc(C(F)(F)F)c2)cc1 | -1.4% | -4.4 | -2.9 | nt | nt
COc1ccc(OC(=O)N2CCOCC2)cc1 | nt | -0.8 | 1.4 | nt | nt
COc1cc2c(cc1NC(=O)C(c1ccccc1)c1ccccc1)CCCC2 | 18.0% | 6.4 | 3.9 | -25.3 | -10.7
CCOc1ccc(CNC(=O)c2ccc(Sc3ccc(Cl)cc3)c(NC(C)=O)c2)cc1 | 3.5% | 4.4 | -1.0 | -23.4 | -18.5

Structures shown so far containing a COOH group:
SMILES | Mtb growth | RecA splice inh | Mtb betalactam | Arbovirus inh | YopH inh | others
O=C(O)CCNS(=O)(=O)c1ccccc1Br | -7.6% | -3.2 | 0.5 | 2.1 | nt
CCCOc1ccc(CSC(CC(=O)O)C(=O)O)cc1 (centres undefined) | -4.2% | -0.4 | -1.3 | 7.9 | -55.2
